nsP2pro inh = blocks chikungunya virus nsP2 protease peptide cleavage; Q8JUX6; FRET peptide cleavage, nsP2pro, fluorescence 1 h; Potency, µM (titrated, usually from 24.9 µM), without a hit: at the highest dose activity change, negative = inhibition, usual class: inhibitors; 1.1% of 31,000 active; AID 1964107; active means well fitted inhibition curve with a large enough effect; inconclusive means small, poorly fitted or top-dose-only effect; inactive means no such curve, though single readings can be large or run the other way; note: nearly all actives have a fitted effect of over 60% in size; a reference inhibitor and vehicle were the controls
* hit, by the source's call; i = inactive; u = inconclusive; & = joins results of further samples; [ ] = another dose, or the depositor's remark. % is set by controls: 0 for no effect and ±100 for the full control effect; potency is the fitted concentration of half-maximal effect. Only part of the results is shown, so the mix of outcomes need not match the whole.

entry | structure | nsP2pro inh
1 | CC(=O)OCC(=O)[C@@]1(O)[C@H](C)C[C@H]2[C@@H]3C[C@H](F)C4=CC(=O)C=C[C@]4(C)[C@H]3[C@@H](O)C[C@@]21C | 10.8%
2 | CCc1ccc(OCC(=O)N2CCN(CCc3ccncc3)CC2)cc1 | 5.5%
3 | N[S+](=O)([O-])c1ccc2c(c1)OCCN(Cc1ccccc1Cl)C2 | 2.2%[39.2 µM]
4 | CC(C)Oc1ccc2c(NC(=O)[C@H]3CCCO3)nn(CC(F)(F)F)c2c1 | -0.2%
5 | CCN1c2cc(C(=O)NCCc3ccccc3)ccc2C(=O)N2CCCCC21 (configuration not stated) | 2.2%
6 | Cc1cc2c(s1)c1c(C)nn(Cc3ccc(F)cc3)c(=O)c1n2C | 2.6%
7 | COc1ccc(C2Nc3ccccc3C(=O)N2CCc2ccccc2)cc1COc1ccc(NC(C)=O)cc1 (configuration not stated) | -9.0%
8 | CC(C)COc1ccc(C(=O)N2CCCCC2CCN2CCCCC2)cc1 (configuration not stated) | -11.3%
9 | COC1OC(OC)C(O)(CCC2(C)C(C)CCC3(C)C2CC(O)C(O)C32CO2)C1O (configuration not stated) | 1.6%[10 µM]
10 | CCc1ccccc1NC(=O)c1cnn2c(C(F)(F)F)cc(-c3ccc(OC)c(OC)c3)nc12 | -8.6%
11 | COc1ccc(CCNC(=O)CN2C(=O)COc3ccc(S(=O)(=O)N4CCCC4)cc32)cc1OC | -14.7%
12 | COCCOCc1nc(C2CCCN2S(=O)(=O)Cc2ccccc2)no1 (configuration not stated) | i
13 | COc1ccc(OC)c(NC(=O)CSC2=Nc3ccccc3C3=NC(CC(=O)NCc4ccco4)C(=O)N23)c1 (configuration not stated) | -18.5%
14 | COc1ccccc1-c1nn2c(=O)cc(CN3CCN(C(=O)Nc4ccc(C)cc4Cl)CC3)nc2s1 | -16.2%
15 | OC[C@@H](O)[C@@H](O[C@@H]1O[C@H](CO)[C@H](O)[C@H](O)[C@H]1O)[C@H](O)[C@@H](O)CO | -2.3%
16 | CCOC(=O)C1CCN(C(=O)C(C)(C)NC(=O)Nc2ccc3sccc3c2)CC1 | -1.8%
17 | O=C1NCCCCCCN(C(=O)CCc2ccccc2)[C@H]2CCCC[C@@H]12 | i
18 | COc1ccc(Nc2ccnc(N3CCCC(C(=O)NCc4ccc(F)cc4)C3)n2)cc1 (configuration not stated) | i
19 | COc1ccc(C(Cl)=C(c2ccc(OC)cc2)c2ccc(OC)cc2)cc1 | 15.2%
20 | CCn1c(CN(C)C)nnc1C1CCN(Cc2ccc(-n3ccnc3)cc2)CC1 | 1.7%
21 | CN(CCc1cnn(C)c1)C(=O)c1coc(COc2cccc(C(F)(F)F)c2)n1 | -0.3%
22 | CCC(CCO[C@@H]1O[C@H](CO[C@H]2OC[C@](O)(CO)[C@H]2O)[C@@H](O)[C@H](O)[C@H]1O)C(C)(C)O (some centres not stated) | -8.8%[10 µM]
23 | Cc1ncsc1C(=O)N1CC(CNC(=O)C2CC2)C2(C1)CN(c1ccccc1)C2 (configuration not stated) | -28.0%[39.2 µM]
24 | CNS(=O)(=O)c1ccc2c(c1)/C(=C/c1[nH]c3c(c1CCCN1CCN(C)CC1)CCCC3)C(=O)N2 | u
25 | O=C(NCC1CN(C(=O)Cc2cccc(Cl)c2)CC12CN(c1ccccc1)C2)C1CC1 (configuration not stated) | -9.2%[39.2 µM]
26 | CCCN(CC1CC1)C(=O)[C@@H]1COCC(=O)N1Cc1ccccc1 | 0.8%
27 | O=[S+]([O-])(CCC(F)(F)F)N1CCN(Cc2ccccc2-c2cccnc2)CC1 | u
28 | O=C(O)c1cccc(CN2C(=O)/C(=C(\c3ccccc3)c3ccc(Cl)cc3)c3ccccc32)c1 | 217.8%[activator]
29 | COc1ccc(-c2nnc(SCC(=O)Nc3ccc(Cl)cc3)s2)cc1 | -2.3%
30 | COc1cc(-c2nnc(SCCOc3cc(C)cc(C)c3)o2)cc(OC)c1OC | -26.3%
31 | C[n+]1cc(P(=S)(c2ccccc2)c2ccccc2)n2ccccc21 | i
32 | Cc1ccc(S(=O)(=O)Nc2ccccc2C(=O)Nc2cccc(-c3ccccc3)c2)cc1 | -28.9%
33 | CCOc1ccc(CCNC(=O)c2sc3ncccc3c2-n2cccc2)cc1OCC | -7.4%
34 | Cc1c(CNC2CCCCCC2)c(C(=O)O)c(C)n1Cc1c(F)cccc1Cl | -14.8%
35 | Cc1cccc(OC(C)C(=O)Nc2ncn[nH]2)c1 (configuration not stated) | -9.6%
36 | COC(=O)c1ccc2nc(C[C@@H]3C[C@@H](C(C)C)[C@H](CNC(=O)c4cccnc4)C=C3C)[nH]c2c1 | 2.6%
37 | CCC1(c2cccc(O)c2)CCCCN(C)C1 (configuration not stated) | -6.0%
38 | COc1cccc(NC(=S)N2CCN(c3ccccc3C(F)(F)F)CC2)n1 | -11.4%
39 | COc1ccccc1C(=O)N1CC(Oc2ccc(-c3noc(-c4ccncc4)n3)cc2)C1 | i
40 | CC(=O)N(CC(O)CO)c1c(I)c(C(=O)NCCO)c(I)c(C(=O)NCC(O)CO)c1I (configuration not stated) | -6.9%
41 | COc1ccc(-c2cc(C(=O)N3CCCC3)ccn2)cc1F | 4.6%
42 | COc1ncccc1-c1n[nH]c2c1CC(=O)N(Cc1ccccc1)C2 | -12.5%[39.2 µM]
43 | Cc1nc(CN2C(=O)OC3(CCN(C(=O)Cc4ccc(O)cc4)CC3)C2(C)c2ccccc2)cs1 (configuration not stated) | i
44 | CC(C)(N)c1cc(C(=O)N[C@@H]2CCc3ccc(Oc4ccnc5c4CCC(=O)N5)cc3C2)cc(C(F)(F)F)c1 | 7.1%
45 | Cc1cc(CN(C)C(=O)c2cc(COc3ccc4c(c3)OCO4)[nH]n2)on1 | -0.7%
46 | Cc1ccccc1N(C)C1CN([S+](=O)([O-])c2ccccc2)C1 | i
47 | O=[S+]([O-])(Nc1ccccc1)c1ccc(NCc2cccc(C(F)(F)F)c2Cl)cc1 | -6.4%
48 | C[n+]1c2cc(N)ccc2cc2ccc(N)cc21 (tested in a mixture with another compound) | u
49 | COc1ccc(-c2cn3cccnc3n2)cc1NC(=O)COc1ccccc1 | 3.9%
50 | COc1ccc(NC(=O)[C@@H]2C[C@H](c3ccc(F)cc3)N(Cc3ccccc3Cl)C2)cn1 | 3.2%[39.2 µM]

The listing continues.
entry | structure | nsP2pro inh
51 | COc1ccc(CN2CCCC(CNC(=O)NC(C)C)C2)cc1O (configuration not stated) | 0.4%
52 | O=C(N[C@H]1CN2CCC1CC2)c1cc2cccc(Cl)c2s1 | 32.6%[activator]
53 | CC(C)C1=NOC2(CCN(C3COC3)CC2)C1 | 2.0%[39.2 µM]
54 | CCCCCCCCCCCCOC(=O)CS(=O)(=O)O | 7.9%
55 | O=C(CCCc1ccccc1)NC(c1ccco1)c1cc(Cl)c2cccnc2c1O (configuration not stated) | -23.3%
56 | CC(=O)Nc1ccc(C(=O)Nc2ccc(-c3nc4ccccc4[nH]3)cc2)cc1 | -0.6%
57 | CCOCCCNC(=O)c1ccc2c(c1)NC(=O)C(CS(=O)(=O)Cc1ccc(F)cc1Cl)N2 (configuration not stated) | -12.8%
58 | O=C(O)CCC(=O)O | -23.2%&1.9%
59 | COc1ccc(CCN(C)CCCC(C#N)(c2cc(OC)c(OC)c(OC)c2)C(C)C)cc1OC (configuration not stated) | 2.7%
60 | Cc1cccc(N2CCN(C(=O)Cn3ncc4c([nH]c5ccccc54)c3=O)CC2C)c1 (configuration not stated) | -17.9%

Gathered by group: those above containing a furan ring, fused or not.
entry | structure | nsP2pro inh
13 | COc1ccc(OC)c(NC(=O)CSC2=Nc3ccccc3C3=NC(CC(=O)NCc4ccco4)C(=O)N23)c1 (configuration not stated) | -18.5%
55 | O=C(CCCc1ccccc1)NC(c1ccco1)c1cc(Cl)c2cccnc2c1O (configuration not stated) | -23.3%

Returning to the listing, repeating the 3 entries before the break.
entry | structure | nsP2pro inh
58 | O=C(O)CCC(=O)O | -23.2%&1.9%
59 | COc1ccc(CCN(C)CCCC(C#N)(c2cc(OC)c(OC)c(OC)c2)C(C)C)cc1OC (configuration not stated) | 2.7%
60 | Cc1cccc(N2CCN(C(=O)Cn3ncc4c([nH]c5ccccc54)c3=O)CC2C)c1 (configuration not stated) | -17.9%
61 | O=C(C[C@@H]1NCCC[C@H]1O)Cn1cnc2ccccc2c1=O | -21.7%
62 | CCOC(=O)C1c2c(OC)ccc3c2C(=CC(C)(C)CO3)CN1C(=O)C1CC1 (configuration not stated) | -3.3%
63 | COc1ccc(S(=O)(=O)ON=C2C=C(C)C(=O)C(C)=C2)cc1 | u
64 | COc1cc(C2N=C(N)Nc3nc4ccccc4n32)ccc1OCC(=O)O (configuration not stated) | -16.2%
65 | Cc1nc(NCCO)c2nc(-c3ccccc3)n(CCN(C)C)c2n1 | -10.5%
66 | CC1=C2CC(=O)C(C)CC/C=C(\C)CC2(O)OC1=O (configuration not stated) | -8.6%
67 | CN(C)C(=O)N1CCC(c2nc(C3CCOC3)n[nH]2)CC1 (configuration not stated) | i
68 | CCOc1ccc2ccccc2c1C(=O)N[C@@H]1C(=O)N2[C@@H]1SC(C)(C)[C@@H]2C(=O)O | -9.1%&14.3%
69 | Cc1cccc(CCNC(=O)C2CCN(c3ncnc4c3nc3n4CCCCC3)CC2)c1 | -14.1%
70 | COCCn1c(C)cc(C(=O)N2CCCCCCNC(=O)CC2)c1C | -18.9%
71 | COc1ccc(NC(=O)c2ccc(-c3nc4ccccc4[nH]3)cc2)cc1OC | i
72 | Cc1cnn(C(C)c2nc(-c3ccc(C)nn3)no2)c1 (configuration not stated) | 1.7%
73 | O=C(Cn1ncc2c(=O)oc3ccccc3c21)N1CCN(c2ccc(Cl)cc2)CC1 | -26.1%
74 | CC(C)CC[C@@H](O)[C@](C)(O)[C@H]1CC[C@@]2(O)C3=CC(=O)[C@@H]4C[C@@H](O)[C@@H](O)C[C@]4(C)[C@H]3CC[C@]12C | -1.7%
75 | COc1ccc(OC)c(C2CC(=O)c3c([nH]c(C(=O)OCC4CCCCC4)c3C)C2)c1 (configuration not stated) | -24.5%
76 | COc1cc2c(c(OC)c1CC=C(C)C)C[C@H](c1ccc(O)c(CC=C(C)C)c1O)CO2 | 63.7%[activator][10 µM]
77 | COc1ccccc1C(=O)Nc1ccc2nc(SCC(=O)N3CCCc4ccccc43)sc2c1 | -11.5%
78 | CCOC(=O)N1CCN(S(=O)(=O)N2CCCC(C(=O)NCc3cccc(OC)c3)C2)CC1 (configuration not stated) | -26.2%
79 | N[C@@H](C(=O)N[C@@H]1C(=O)N2C(C(=O)O)=C(Cl)CC[C@H]12)c1ccccc1 | -28.1%
80 | CC(=O)N1CCc2cc(-c3nc(NC(=O)Cc4ccc5c(c4)OCO5)sc3C)ccc21 | i
81 | Cc1ccccc1C1C=C(c2ccc(Cl)cc2)Nc2nnnn21 (configuration not stated) | -27.2%
82 | FC(F)(F)c1cccc(N2CCN(C(=S)Nc3cccnc3)CC2)c1 | -7.2%
83 | CN1CCOC[C@H]2CCNC[C@H]21 | -18.2%
84 | CN1CCC(N2C[C@@H]3C[C@H]2C(=O)N(CC2CC2)c2ccccc2O3)CC1 | -0.3%[39.2 µM]
85 | CCN(C(=O)c1cc2c(=O)n3cccc(C)c3nc2s1)c1ccc(C)c(C)c1 | -28.6%
86 | Cc1c(C(=O)Nc2cccc(-c3nc4ccccc4s3)c2)oc2ccccc12 | -14.8%
87 | CN(CCc1ccccn1)[C@H]1[C@@H]2OC[C@@H](O2)[C@@H](NCc2ccncc2)[C@@H]1O | -19.9%[39.2 µM]
88 | CO[C@@H]1C[C@H](O[C@H]2[C@H](C)[C@H](O[C@@H]3O[C@@H](C)C[C@@H](N(C)C)[C@H]3OC(C)=O)[C@H](C)C[C@]3(CO3)C(=O)[C@H](C)[C@H](OC(C)=O)[C@H](C)[C@H](C)OC(=O)[C@@H]2C)O[C@H](C)[C@H]1OC(C)=O | 6.2%
89 | COCC1CN(C(=O)c2sccc2C)CC12CCOCC2 (configuration not stated) | -3.0%
90 | Cc1cccc(CNc2ccc(S(=O)(=O)Nc3nccs3)cc2)c1O | i
91 | CN(c1ccccc1)c1ccc(CNc2nn3c(=O)c4ccccc4nc3s2)cc1 | -9.6%
92 | CC(C)N(CCCNC(=O)Nc1ccc(C(C)(C)C)cc1)C[C@H]1O[C@@H](n2cc(Br)c3c(N)ncnc32)[C@H](O)[C@@H]1O | 46.6%
93 | Cc1ccccc1S(=O)(=O)N1CCCC2(C1)Nc1cccnc1NC2=NC1CCCC1 (configuration not stated) | u
94 | COc1ccc(Cl)cc1NC(=O)C1CCCN(c2ncnc3onc(C)c23)C1 (configuration not stated) | -9.9%
95 | CCOc1ccc(NC(=O)Cn2c(=O)oc3cc(S(=O)(=O)NC4CCCC4)ccc32)cc1 | -20.4%
96 | COc1ccc(C2Nc3cccc4cccc(c34)N2)cc1 | i
97 | Cc1ccc(CNC(=O)C(CC(C)C)NS(=O)(=O)c2ccc3c(c2)oc(=O)n3C)cc1 (configuration not stated) | -5.7%
98 | CCC1(O)CCC12CCN(C(=O)c1ccco1)CC2 (configuration not stated) | -9.2%
99 | Cc1ccc(NCc2ccc(O)c3ncccc23)c(F)c1 | 4.3%
100 | O=[S+]([O-])(Nc1ccc(-c2nc3ccccc3[nH]2)cc1)c1ccc2c(c1)CCO2 | -12.9%
101 | N#Cc1cccc(-c2cn3c(n2)N(C(=O)c2ccccc2F)CCC3)c1 | -3.4%
102 | COc1cc2c(cc1O)C1(Cc3ccc4c(c3C1O)OCO4)[N+](C)([O-])CC2 (configuration not stated) | u
103 | Cn1nnnc1Sc1ncnc2scc(-c3cccc(F)c3)c12 | 4.8%
104 | COCCc1noc(C2Cc3ccccc3N2C(=O)Cc2ccc(OC)c(OC)c2)n1 (configuration not stated) | -0.3%
105 | CC(C)(C)OC(=O)N1CCC(c2c(C(=O)N3CCOCC3)cnn2-c2ccccc2Cl)CC1 | -11.4%
106 | Cc1cc(OCC(=O)N2CCN(CCc3ccccn3)CC2)cc(C)c1Cl | -11.7%
107 | CCCCN(CCCNC(=O)c1cc(Nc2cccc(SC)c2)nc2ccccc12)Cc1ccccc1 | -9.5%
108 | COC1CCN(C(=O)c2cc(Cc3n[nH]c(=O)c4ccccc34)ccc2F)CC1 | -2.4%&-9.6%&-10.0%

Bioassay records (PubChem BioAssay)
